High-throughput results from PubChem.
Rce1 inhib = inhibitors of yeast Ras-converting enzyme | Q03530 | yeast membranes, quenched prenylated peptide cleavage fluorescence | calls only | 0.27% of 290,000 active;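 active = fall in fluorescence gain of 50% or more versus controls, with final raw signal at or below 3038400; inconclusive = same 50% fall but final raw signal above 3038400; inactive = fall in fluorescence gain under 50%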;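 note: plate controls were neutral control wells for no effect and wells lacking membranes for full effect; tested at 10 µM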
eIF4H FP inh = inhibitors of RNA binding by human eIF4H; eIF4H fluorescence polarization binding assay; inhibition, % at 35 µM; 0.94% of 290,000 active;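 active = 50% or more with normal probe brightness, or confirmed in later tests; inconclusive = above 50% with abnormal brightness, or retests that disagree; inactive = below 50% or failed in later tests; about a fifth of its hits are not listed in these tables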;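 note: calls also rest on retests at 20 µM and on dose response follow-up; 0% = protein and probe with vehicle and 100% = probe without protein; strong numbers were not always called active; many hits fall short of the cut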
MT1-MMP act inh = MT1-MMP (human) activation inhibition; AID 651647; 0.061% of 360,000 active; GFP/RFP ratio change, % at 20 µM; HT1080 RFP-PRO-GFP cells, GFP/RFP ratio fluorescence, overnight; percent of plate control window, DMSO zero;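 active = GFP/RFP ratio change of at least 30% with cell ATP level not reduced by more than half and red fluorescence within 50% of control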; note: strong numbers were not always called active
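Assay system: HT1080 RFP-PRO-GFP cells | Dosing: 20 µM single dose, 1% DMSO | Incubation: Cells overnight before dosing, compound overnight, 37 °C, 5% CO2 | Evaluation: GFP/RFP fluorescence ratio | Control set: DMSO-only wells and HT1080 RFP-L50D-GFP cell wells as references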
CSC inhib = cancer stem cell inhibition; inhibition, % at 7.5 µM; AID 2717; 1.1% of 300,000 active; cancer stem cell-like cells viability, luminescence;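 active = mean at 75% or more and at least half the replicates too; inconclusive = mean and replicates disagree; tested in HMLE shEcad cells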;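 note: 0% = median of negative and 100% = median of positive control wells; the first replicate is given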
PABP FP inh = blocks human PABP binding to poly(A) RNA. P11940. fluorescence polarization. inhibition, % at 35 µM. 1% of 290,000 active. AID 2014;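 active = 50% or more with normal probe brightness, or confirmed in later tests; inconclusive = above 50% with abnormal brightness, or retests that disagree; inactive = below 50% or failed in later tests; about a fifth of its hits are not listed in these tables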;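 note: calls also rest on retests at 20 µM and on dose response follow-up; controls were probe without protein and protein plus probe with vehicle; some compounds called inactive have numbers as strong as hits; many hits fall short of the cut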
Target sequence (P11940 whole entry, looked up): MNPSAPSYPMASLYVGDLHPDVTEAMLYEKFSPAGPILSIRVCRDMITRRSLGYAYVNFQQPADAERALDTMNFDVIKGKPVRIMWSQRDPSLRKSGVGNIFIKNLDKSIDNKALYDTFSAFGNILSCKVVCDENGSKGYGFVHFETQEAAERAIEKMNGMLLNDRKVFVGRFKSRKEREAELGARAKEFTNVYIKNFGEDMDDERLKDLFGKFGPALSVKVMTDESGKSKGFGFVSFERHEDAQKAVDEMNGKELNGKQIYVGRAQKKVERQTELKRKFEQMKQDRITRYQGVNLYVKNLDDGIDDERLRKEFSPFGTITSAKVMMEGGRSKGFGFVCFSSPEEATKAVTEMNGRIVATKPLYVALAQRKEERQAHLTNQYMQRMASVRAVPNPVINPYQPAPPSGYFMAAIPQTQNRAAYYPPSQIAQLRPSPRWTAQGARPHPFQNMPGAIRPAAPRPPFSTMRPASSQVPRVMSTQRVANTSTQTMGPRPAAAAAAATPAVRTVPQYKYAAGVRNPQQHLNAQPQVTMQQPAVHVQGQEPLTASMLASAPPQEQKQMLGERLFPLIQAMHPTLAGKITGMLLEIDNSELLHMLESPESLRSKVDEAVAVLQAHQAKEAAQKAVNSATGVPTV
Env fusion inh = inhibitors of HIV Env-mediated cell fusion; HeLa-JRFL Env/CEM21 cell fusion, luciferase; inhibition, % at 12.3 µM; AID 651610; 1.1% of 360,000 active;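 active = mean replicate inhibition score of at least 50 and every replicate individually at or above 50; inconclusive = only one of the two criteria met; inactive = mean below 50 and not all replicates reaching 50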;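 note: 0% = plate neutral controls and 100% = maraviroc near 300 nM; one replicate is shown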
UUG fidelity = alters start codon recognition fidelity in yeast. S. cerevisiae UUG-firefly luciferase reporter, luminescence/redox ratio. activity score, % at 18.7 µM. 0.13% of 350,000 active;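 active = replicate mean at a twofold rise or more, about +100% in these data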;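 note: firefly luciferase made from a UUG start codon reports start codon fidelity; reporter light over untreated wells divided by growth signal over untreated wells; some hits fall short of that in this replicate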
MT1-MMP act inh RFP = recorded beside MT1-MMP act inh, whose call it bears; RFP signal change, %; measured here: RFP expression control read;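 0 = vehicle wells; hits needed this value within 50% of zero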
The depositor's hits bear a star; i = inactive; ? = inconclusive; nt = no result given; & = joins results of further samples. The list is partial, so the mix of outcomes need not match the whole.

SMILES	Rce1 inhib	eIF4H FP inh	MT1-MMP act inh	MT1-MMP act inh RFP	CSC inhib	PABP FP inh	Env fusion inh	UUG fidelity
O=C(CSc1ncn[nH]1)NC1CCCc2ccccc21 (stereo not drawn)	i	6	-6	0	-11	-3	0	nt
C=CCn1c(C)cc(C(=O)COC(=O)COc2ccccc2C#N)c1C	i	-1	5	8	-10	15	18	-19
COC(=O)c1cc(S(=O)(=O)N2CCN(Cc3ccccc3)CC2)c[nH]1	i	0	-3	-4	9	-6	-3	-16
Cc1ccc(NC(=O)c2sccc2C)cc1[N+](=O)[O-]	i	6	-2	0	7	3	-23	nt
CC(=O)N1c2ccc(S(=O)(=O)N3CCC(C(=O)NCCc4ccc(Cl)cc4)CC3)cc2CC1C (stereo not drawn)	i	-10	-6	-28	-3	-1	23	8
CCc1nnc(NS(=O)(=O)c2ccc(N/C=C\C(=O)c3ccc4ccccc4c3)cc2)s1	i	7	7	0	7	-10	-1	-2
COc1ccc(N(C(=O)CCl)C(C(=O)NC2CCCCC2)c2cccnc2)cc1 (stereo not drawn)	i	-11	12	-2	59	16	51*	nt
Cc1cc(C(=O)NNC(=O)COc2ccccc2Cl)n[nH]1	i	8	-2	6	nt	3	3	-18
COc1ccc2cc3c(N)nn(C(=O)c4ccccc4Cl)c3nc2c1	i	8	-6	-15	17	3	51	nt
COCCN(C(=O)CSc1nnc(-c2ccccc2C)n1C)c1c(N)n(Cc2ccccc2)c(=O)[nH]c1=O	nt	10	-3	4	-7	7	-3	nt
CC(=O)Nc1ccc(NC(=O)C/C(C)=N/NC(=O)COc2cc(C)c(Br)cc2Br)cc1	i	4	3	2	0	15	-10	-9
Cc1cc(C)cc(N2CC(O)Cn3c2nc2c3c(=O)[nH]c(=O)n2C)c1 (stereo not drawn)	i	-7	12	7	-3	1	19	-1
O=C(Nc1nc2c(F)cc(F)cc2s1)C1CCN(C(=O)c2ccc(F)cc2)CC1	i	nt	-1	-3	-5	nt	-29	nt
Cc1ccc(-c2nnc(CSc3nnc(C)s3)o2)cc1	nt	-9	-3	8	1	-2	-20	4
COc1ccccc1NC(=O)c1ccccc1SC	i	-12	-4	0	-9	10	nt	-12
CN(CC(=O)Nc1ccc(Cl)cc1)C(=O)c1ccc(COc2ccccc2)cc1	nt	nt	1	-9	23	nt	-1	-15
COc1ccccc1NC(=O)c1ccc(-n2cncn2)nc1	i	3	-1	-4	-10	-2	7	nt
COc1ccc(C(=O)CC(c2ccccc2)C2CCCCC2=O)cc1 (stereo not drawn)	i	-7	-1	-1	-11	3	nt	20
O=c1[nH]c(Nc2ccccc2Cl)cc2ccccc12	i	nt	-36	9	-5	nt	-10	-89
Cc1cc(CC(=O)O)c(C)cc1CC(=O)O	i	-3	2	5	2	3	nt	-5
COc1ccc(-n2nc3cc(C)c(N)cc3n2)cc1Cl	i	32	1	7	-4	14	-97	-5
COc1cc(C(=O)OCC(=O)c2ccccc2)cc2c1OCCO2	nt	nt	3	-1	nt	nt	30	6
CCN(CC(=O)Nc1ccc(NC(C)=O)cc1)C(=O)c1cccc(-n2cccc2)c1	i	nt	0	0	-6	nt	nt	-13
O=C(Nc1ccccc1F)c1cc(S(=O)(=O)N2CCOCC2)ccc1N1CCOCC1	nt	nt	-1	2	nt	nt	-7	26
N#Cc1nc(COc2ccc(-c3ccccc3)cc2)oc1NCc1cccnc1	i	4	2	1	34	-1	nt	-1

The final five compounds of the section above are carried over, then new ones follow:
SMILES	Rce1 inhib	eIF4H FP inh	MT1-MMP act inh	MT1-MMP act inh RFP	CSC inhib	PABP FP inh	Env fusion inh	UUG fidelity
COc1ccc(-n2nc3cc(C)c(N)cc3n2)cc1Cl	i	32	1	7	-4	14	-97	-5
COc1cc(C(=O)OCC(=O)c2ccccc2)cc2c1OCCO2	nt	nt	3	-1	nt	nt	30	6
CCN(CC(=O)Nc1ccc(NC(C)=O)cc1)C(=O)c1cccc(-n2cccc2)c1	i	nt	0	0	-6	nt	nt	-13
O=C(Nc1ccccc1F)c1cc(S(=O)(=O)N2CCOCC2)ccc1N1CCOCC1	nt	nt	-1	2	nt	nt	-7	26
N#Cc1nc(COc2ccc(-c3ccccc3)cc2)oc1NCc1cccnc1	i	4	2	1	34	-1	nt	-1
O=C(NCCCn1ccnc1)c1nc(Cn2cc([N+](=O)[O-])cn2)no1	i	-1	-1	1	-3	10	1	-10
CCN(Cc1cccc(F)c1)C(=O)c1ccc2ccccc2n1	i	7	-3	0	-7	4	13	-12
Cc1ccc(NC(=S)NCCc2ccc(F)cc2)c(C)c1	i	-8	-2	2	-3	4	-1	-28
C[C@H](CO)N1C[C@H](C)[C@@H](CN(C)S(=O)(=O)c2cn(C)cn2)Oc2c(NC(=O)Nc3ccc(C(F)(F)F)cc3)cccc2C1=O	nt	nt	5	1	nt	nt	-2	15&6
CCN(CC)CCOC(=O)c1ccc(N/C=C(/C#N)c2nc(-c3ccc4c(c3)OCO4)cs2)cc1	i	-34	5	8	-5	-68	11	-3
COC(=O)CNC(=O)CSc1nc2sc(-c3ccccc3)cc2c(=O)n1-c1ccccc1	i	nt	0	1	-11	nt	-22	-1
CC1=Nc2cc(C(=O)NCCN3CCOCC3)ccc2Sc2c(C)ccc(C)c21	i	-2	-2	-7	42	-1	-57	-15
Oc1ccc(C[C@H]2CNC(=S)N2CC2CCCN2C[C@H](Cc2ccc(O)cc2)N2C[C@H](Cc3ccccc3)N(CCc3ccccc3)C2=S)cc1 (stereo partly drawn)	nt	nt	-6	-12	nt	nt	13	-17
COc1ccc(-c2csc(NC(=O)C(CC(=O)O)N3CCOCC3)n2)cc1 (stereo not drawn)	i	-6	5	1	nt	-3	-11	-2
COc1ccc(/C=N/NC(=O)c2ccco2)cc1Cn1nc(C)c([N+](=O)[O-])c1C	i	2	-8	-15	-12	-9	-10	nt
CC(=O)c1ccc(OCc2ccccc2)c(C)c1O	i	10	2	1	7	8	-103	-8
O=C(NCc1ccccc1)c1ccccc1-c1nc2ccccc2[nH]1	i	0	-2	0	-12	-19	4	-13
CC(=O)Nc1ccc(Nc2c([N+](=O)[O-])cc(S(C)(=O)=O)cc2[N+](=O)[O-])cc1	i	-1	12	6	8	0	17	nt
CC(=O)Nc1ccc(Nc2ccc(N3C(=O)CCCC3=O)cc2[N+](=O)[O-])cc1	i	0	12	1	5	6	4	6
Cc1c(Cl)cccc1NC(=O)c1ccc(OCC(=O)NCc2ccccc2)cc1	i	-5	10	5	nt	-12	nt	nt
CCc1cccc2c(C(=O)CN3C(=O)N(C)C4(CCCCC4)C3=O)c[nH]c12	nt	nt	0	1	nt	nt	-7	-37
O=C(CSc1nnc(NC(=O)C2CCC2)s1)Nc1ccccc1Br	i	1	3	-1	-6	9	0	-2
CCOC(=O)c1c[nH]c2c(Cl)c(Cl)ccc2c1=O	i	-7	0	3	-5	3	8	-9
O=C(NCCCc1ccncc1)C1CCC(=O)N(Cc2cccc(F)c2)C1 (stereo not drawn)	i	-13	-2	4	9	-4	1	-8
CCOc1ccc(N=Cc2c(C)[nH]n(-c3nc4ccccc4[nH]3)c2=O)cc1	i	13	11	7	118*	-4	-6	nt
COc1ccc(N2CCN(C(=O)COc3cccc4ccccc34)CC2)cc1	i	-10	0	2	-20	-5	nt	-7
COc1ccc(N2CCN(S(=O)(=O)c3ccc4c(c3)CCCC4)CC2)c([N+](=O)[O-])c1	i	-7	-7	-23	13	5	nt	-17
CCN(CC)S(=O)(=O)c1cc(NC(=O)CN2CCN(c3ccccn3)CC2)ccc1C	i	-1	1	-8	-6	-7	-2	-12
COc1ccc(CN2C(=O)C(C)Nc3ncnc(N4CCN(c5ccccc5)CC4)c32)cc1 (stereo not drawn)	nt	nt	-6&-2	-4&-4	1	nt	-8&1	-12&-17
O=C(NCC1CCCCC1)C1(CC2CC(c3ccc(Cl)cc3)=NO2)CCNCC1 (stereo not drawn)	i	3	-1	-2	10	-3	17	-14

(further entries)
SMILES	Rce1 inhib	eIF4H FP inh	MT1-MMP act inh	MT1-MMP act inh RFP	CSC inhib	PABP FP inh	Env fusion inh	UUG fidelity
O=C(O)CC(CC(=O)N1CCN(C(=O)c2ccco2)CC1)c1ccccc1 (stereo not drawn)	i	-8	-1	1	20	9	-5	0
O=C(NC1CCCCC1)C(c1ccccc1)N1CCCC1 (stereo not drawn)	i	-2	-3	4	1	-4	-125	-11
N#CC1=C(N)Oc2cc(O)ccc2C1c1ccccc1 (stereo not drawn)	i	-2	-11	2	-6	4	-14	-1
Cc1ccc(N2C(=O)CSC2=S)cc1C	i	-5	-3	-1	nt	0	-4	-38
CC(C)CN(C(=O)COC(=O)C12CC3CC(CC(Cl)(C3)C1)C2)c1c(N)n(Cc2ccccc2)c(=O)[nH]c1=O	i	nt	-29	-28	-16	nt	33	-15
COc1ccc(C(=O)N/N=C/c2sc3ccccc3c2O)cc1	i	?	-80	11	?	-6	nt	nt
COc1ccccc1-n1cnc2cc(NCc3cccs3)ccc21	i	5	0	-7	-7	-5	-176	-12
OC[C@@H]1CCCN1Cc1nc(-c2cccs2)no1	i	1	-2	3	3	-2	-19	nt
O=C(Nc1ncn[nH]1)c1ccccc1O	i	-4	0	1	-11	-11	1	-1
O=C(CSc1ccc2nnc(-c3ccncc3)n2n1)Nc1ccccc1F	i	-6	-1	3	-2	-1	9	10
O=C(CSCC(=O)c1ccccc1)Nc1ccccc1Cl	i	-1	-5	0	-3	2	-19	-12
Nc1nonc1-n1nnc(C(=O)N/N=C/c2ccncc2)c1-c1ccccc1	i	0	-3	-4	nt	0	-14	-17
COc1nnc(-c2ccc(N3CCCCC3)c(NC(C)=O)c2)c2ccccc12	i	1	-4	-7	-4	1	-33	12
CC12CCC(=O)N1C(C(=O)Nc1cccc3ccccc13)CS2 (stereo not drawn)	nt	-1	-2	-4	-15	9	-23	-13
Cc1cc(NC(=O)C2C3C(=O)N(CC4CCCO4)C(C(=O)NC(C)(C)C)C34C=CC2(C)O4)no1 (stereo not drawn)	i	-2	3	2	-4	-10	17	-17
CCOC(=O)C1C(=O)CC(C)(O)C(C(=O)OCC)C1c1ccc(N(CC)CC)cc1 (stereo not drawn)	i	11	6	5	-16	-1	-68	-18
CCN1CCN(c2cc(N3CCN(C(=O)c4ccco4)CC3)c3c4c(onc24)-c2ccccc2C3=O)CC1	i	94*	2	6	31	122*	nt	-10
C/C(=N\NC(=O)c1cc2c(s1)CCC(C)C2)c1ccncc1 (stereo not drawn)	i	-4	3	2	-8	-5	-20	-13
COc1ccc(NC(=S)NCc2ccc3c(c2)OCO3)cc1	i	2	1	2	-24	10	9	-26
CCc1cc(=O)oc2cc(C)cc(OCC(=O)N3CCC(C(=O)NC(C)C)(c4ccccc4)CC3)c12	i	nt	-1	-9	-9	nt	9	18
CCOc1ccc(NS(=O)(=O)c2ccc(NC(=S)NC(=O)CC(C)C)cc2)cc1	i	-5	-12	-15	20	-9	nt	nt
C=C(C)[C@@H]1CC=C(C(=O)O)CC1	i	-4	0	2	-14	1	-7	-12
Cc1c(-n2c(SCC(C)C)nc3ccccc3c2=O)c(=O)n(-c2ccccc2)n1C	i	-6	-1	3	-11	10	-12	-3
COc1ccc(S(=O)(=O)N2CCOc3ccccc32)cc1	i	-4	-1	-14	50	8	-30	3
COC(=O)c1cc2occc2n1CC(=O)Nc1ccc(OC)c(OC)c1OC	i	7	5	3	-6	1	nt	-25
Cc1nc(N)nc(-c2ccccc2O)n1	i	-15	-2	-1	-4	1	nt	-19
Clc1ccc(OCCn2ccnc2)cc1Cl	i	8	2	2	1	25	0	13
CCOCCOC(=O)c1ccc(NC(=O)C2COc3ccccc3O2)cc1 (stereo not drawn)	i	9	2	0	-8	0	-6	7
